High-throughput results from PubChem BioAssay.
ALR H2O2 inh: inhibitors of human ALR sulfhydryl oxidase, primary screen, biochemical, H2O2 detection, HRP-luminol luminescence, single point | 3.8% of 290,000 active | AID 485317, 2010 | inhibition, % (no concentration beside the values) | FAD-linked sulfhydryl oxidase ALR (Homo sapiens), P55789 | purified ALR, DTT oxidation;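 active = mean and each replicate at 75% or more; inconclusive = only one of the two met; inactive = neither met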;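 also: stock transfer was 7.5 nL into about 7.5 µL; 0% = neutral wells and 100% = wells with inactivated enzyme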
Target sequence (P55789 whole entry, looked up): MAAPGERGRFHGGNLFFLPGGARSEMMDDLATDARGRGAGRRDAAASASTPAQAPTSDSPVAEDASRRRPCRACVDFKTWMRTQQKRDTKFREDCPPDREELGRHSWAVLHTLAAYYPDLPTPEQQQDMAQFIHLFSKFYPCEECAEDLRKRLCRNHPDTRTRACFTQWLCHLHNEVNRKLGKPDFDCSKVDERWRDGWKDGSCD
LANA-H2A inh: blockers of LANA interaction with H2A/H2B – biochemical, FP readout, HTS, primary screen; Protein LANA1 (Human herpesvirus 8 type P (isolate GK18)), Q9QR71; cell-free LANA-H2A/H2B peptide, fluorescence polarization; inhibition, % (test concentration not listed); 0.6% of 320,000 active; AID 2629, 2010; in the data active = inhibition mostly above about 10%, no sharp cut-off; inactive = mostly below about 6.7%;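 also: stock transfer was 7.5 nL into about 10 µL; 0% = median of vehicle wells and 100% = median of positive control wells; one replicate is shown; the record names a cut of 25% in any replicate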
Bfl-1 A1 inh: caspase 3/7 activation in MEF A1-2A-BIM cells, primary screen, A1 inhibitor project, cell-based, luminescence, HTS | Caspase-Glo 3/7 luminescence, 3 h; percent of clofoctol response, vehicle zero | AID 2462, 2010 | 0.066% of 330,000 active | caspase activation, % (concentration not given with the values);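 active = over half of replicate activation scores above 10%, or exactly half above 10 with the replicate mean above 10; inconclusive = replicate mean below 10 yet half the replicates above 10; inactive = over half of replicates below 10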;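 also: wells of about 30 µL received 50 nL stock; many hits fall short of the cut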
T cruzi inh: inhibitors of intracellular T. cruzi growth, primary screen, luminescence, NIH3T3 host cells | AID 1885, 2009 | T. cruzi beta-gal in NIH3T3, 90 h | inhibition, % (no concentration beside the values) | 1.4% of 300,000 active;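 active = mean inhibition across valid replicates above about 55%, limit read from the data; inconclusive = mean below that limit but half or more replicates reach it; inactive = mean below it, under half of replicates reach it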;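 also: signal also drops with host cell toxicity which is not excluded here; 0% = plate median of DMSO wells and 100% = zero luminescence signal; higher percent means less beta-gal luminescence so fewer parasites; stock transfer was 50 nL into about 50 µL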
Beta2AR agonist: beta2AR agonists driving receptor internalization, primary screen, cell-based, FAP fluorogen, flow cytometry; Beta-2 adrenergic receptor (Homo sapiens), P07550; Am2.2-beta2AR cells; reference of the scale not given here; response, % (concentration not given with the values); 0.43% of 340,000 active;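 active = response above a set limit, near 3 SD of response in nonfluorescent compounds, cut at about 42% in these data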;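 also: stock transfer was 100 nL into about 11 µL; a reference agonist was the positive control; negative values mostly stem from fluorescent compounds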
Target sequence (P07550 whole entry, looked up): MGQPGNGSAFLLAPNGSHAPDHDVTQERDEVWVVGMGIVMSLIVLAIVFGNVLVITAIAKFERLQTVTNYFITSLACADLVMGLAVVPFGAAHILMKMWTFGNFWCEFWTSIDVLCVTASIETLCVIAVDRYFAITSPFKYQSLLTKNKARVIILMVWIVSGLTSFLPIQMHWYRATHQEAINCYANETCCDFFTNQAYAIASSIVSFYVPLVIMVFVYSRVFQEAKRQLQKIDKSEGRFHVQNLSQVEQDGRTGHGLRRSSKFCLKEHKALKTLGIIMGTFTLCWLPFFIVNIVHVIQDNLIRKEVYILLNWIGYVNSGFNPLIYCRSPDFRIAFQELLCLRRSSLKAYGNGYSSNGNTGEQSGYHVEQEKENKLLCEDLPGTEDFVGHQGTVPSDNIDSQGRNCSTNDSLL
rRNA inh HTS: reduced GFP signal of wild-type E. coli, primary screen, bacterial rRNA inhibitor project, GFP/RFP fluorescence, OD600, single point. GFP signal change (wild-type ribosome), % (no concentration beside the values). E. coli WT GFP vs humanized-ribosome RFP mutants, 24 h; active compounds read low; DMSO median 0, no signal -100. 1.6% of 350,000 active;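 active = significant combined selectivity score with lowered wild-type GFP, culture density cut under 30%, mutant RFP and density less affected; inactive = any of these conditions unmet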; also: one replicate is shown; some compounds called inactive have numbers as strong as hits
Beta apoptosis: inhibitors of cytokine-induced beta cell apoptosis, primary screen, luminescence; AID 435005, 2010; protection from apoptosis, % (test concentration not listed); INS-1E cytokine-induced death, ATP luminescence, 48 h; percent of positive-control rescue, neutral wells zero; 0.8% of 300,000 active;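 active = all replicates at 75% or more, or half of them and the mean; inconclusive = half reach 75% but not the mean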;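 also: 0% = cytokine-treated negative control wells and 100% = positive control rescue; higher means more ATP so stronger rescue from cytokine killing; wells of about 40 µL received 100 nL stock; the first replicate is given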
Calb FLC: C. albicans growth inhibition with fluconazole, primary screen, CaCi-2 strain, Alamar Blue fluorescence. AID 1979, 2009. 0.57% of 300,000 active. growth inhibition, % (test concentration not listed). C. albicans CaCi-2 (fluconazole-resistant clinical isolate) + fluconazole, 48 h;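 active = most replicates above 75%; inconclusive = exactly half above 75%; inactive = most below 75%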;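 also: all wells also contain fluconazole at 8 µg/ml as a sub-toxic cotreatment; 0% = median of DMSO wells and 100% = median of geldanamycin control wells; wells of about 8 µL received 7.5 nL stock; the first replicate is given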
rRNA inh HTS OD600: also measured in rRNA inh HTS; calls as there; OD600 change, %; measured here: OD600 growth;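 optical density of the mix in the first replicate; 0 = DMSO median and -100 = no signal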
rRNA inh HTS RFP: further read-out of rRNA inh HTS, marked with its call; RFP signal change, %; measured here: RFP humanized mutant strains;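 first replicate; 0 = DMSO median and -100 = no signal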
An asterisk follows results filed as active; ? = inconclusive; . = not tested or not shown. An excerpt. The share of hits here may be higher or lower than overall.

molecule	Beta apoptosis	rRNA inh HTS OD600	Bfl-1 A1 inh	rRNA inh HTS RFP	ALR H2O2 inh	rRNA inh HTS	Calb FLC	LANA-H2A inh	Beta2AR agonist	T cruzi inh
CN(Cc1cnccn1)Cc1ccccc1OCC(O)CN1CCc2ccccc2C1 (stereo unspecified)	3	6	0.0	1.8	-15	2	-17	-2.3	-9	31
CCOCCn1c(COc2ccccc2)nc2ccccc21	5	.	-0.2	.	0	.	5	3.8	-8	14
Cc1ccc(NC(=S)NC(=O)CC2CC(C)(C)OC2=O)cc1 (stereo unspecified)	-2	7	0.3	-1.9	-8	4	0	1.4	0	1
CCOC(=O)N(C)S(=O)(=O)c1ccccc1[N+](=O)[O-]	-4	-1	-0.3	1.8	-3	9	-3	1.1	1	2
CC(C)C(C(=O)NCc1ccco1)N(C(=O)CNS(=O)(=O)c1ccccc1)C1CCCC1 (stereo unspecified)	-1	.	0.6	.	-2	.	-4	2.5	-10	12
Cc1cc2nc(C(C)(C)C)cc(N)n2n1	2	6	-0.5	6.6	-33	3	-2	-3.7	-2	1
COc1cccc(/C=N/Nc2nnc3c(n2)[nH]c2ccccc23)c1OC	19	11	-1.2	6.6	0	9	-2	1.7	5	5
CCCCCc1ccc(CC(=O)O)cc1	5	.	-1.8	.	-9	.	12	0.9	2	-14
CCOC(=O)CNC(=O)C(Cc1ccccc1)NS(=O)(=O)c1ccc2c(c1)CCC(=O)N2 (stereo unspecified)	2	.	-0.2	.	0	.	-8	4.3	-15	-2
Cc1c(CCC(=O)O)c(=O)oc2cc3occ(-c4ccc(Cl)cc4)c3cc12	10	-71	0.4	-12	8	-50	28	-1.5	13	2
CC(Oc1ccccc1F)c1nnc(SCC(=O)Nc2ccc(N3CCOCC3)cc2)o1 (stereo unspecified)	-1	6	-0.8	0.2	38	5	.	2.5	-3	.
CC(=O)Nc1ccc2c(c1)CN(c1cc(C)ccc1C)CO2	2	.	-0.4	.	.	.	-6	-1.9	-4	-16
Nn1c(Cc2cccc3ccccc23)nnc1SCc1c(F)cccc1Cl	-4	.	1.5	.	-8	.	3	-2.0	-5	-10
O=S(=O)(NCCc1ccccc1)c1ccc(Br)cc1	-3	0	-0.7	-4.9	-5	0	0	-1.7	0	-7
Clc1ccc(-c2nnc(CNC3CC3)o2)cc1	0	22	-0.1	4.1	-15	13	-9	4.9	-4	-3
CN(C)CCCNc1oc(-c2ccccc2Cl)nc1S(=O)(=O)c1ccc(F)cc1	.	-3	0.5	-0.2	14	-14	-9	-12	7	62*
Cc1noc(C)c1C(=O)OCC(=O)NCCc1ccc(S(N)(=O)=O)cc1	-2	8	-0.6	-0.8	0	8	.	1.5	1	.
CCN1CCN(CC(=O)Nc2ccc(S(=O)(=O)N3C(C)CCCC3C)cc2)CC1 (stereo unspecified)	-1	5	0.5	1.0	0	-2	25	-3.9	5	58*
CC1CC1C(=O)OCC(=O)NC(=O)NC12CC3CC(CC(C3)C1)C2 (stereo unspecified)	1	-17	0.5	-0.6	-3	-6	-14	-1.9	-8	1
O=C(O)c1cccc(NC(=O)c2cccc(NC(=O)C3CCCO3)c2)c1 (stereo unspecified)	-14	.	1.1	.	-6	.	-12	-4.2	-1	-30

The list continues:
molecule	Beta apoptosis	rRNA inh HTS OD600	Bfl-1 A1 inh	rRNA inh HTS RFP	ALR H2O2 inh	rRNA inh HTS	Calb FLC	LANA-H2A inh	Beta2AR agonist	T cruzi inh
Cc1ccc2c(=O)cc(C(=O)Nc3ccc(S(=O)(=O)Nc4onc(C)c4C)cc3)oc2c1	.	23	.	5.1	97*	2	2	.	-4	-14
Cc1ccc(Cl)cc1NC(=O)c1ccccn1	-2	-5	-1.1	-5.1	3	-8	?	-0.8	1	-16
CCOC(=O)c1nc(C)nc(Sc2n[nH]c(-c3ccccc3)n2)c1C	0	7	-1.0	2.8	71	3	16	11	-6	-19
CC(C)=CCc1c(O)ccc(C2COc3c(CC=C(C)C)c(O)cc(O)c3C2=O)c1O (stereo unspecified)	-5	.	0.8	.	11	.	17	-9.9	0	-11
Cc1cccc(NC(=O)CSc2nc(NS(=O)(=O)c3ccccc3)cc(=O)[nH]2)c1	-4	14	0.8	4.8	99*	9	5	-2.8	-5	-33
Cc1c(NC(=O)c2ccc(NS(=O)(=O)c3ccc(F)c(F)c3)cc2)c(=O)n(-c2ccccc2)n1C	-3	2	1.7	-0.3	.	1	.	1.2	-5	.
O=C(Cn1cnc2c(NC(=O)OCc3ccccc3)ncnc21)NCc1ccccn1	4	11	-1.2	0.8	-2	12	.	-0.5	-5	.
COc1cc(C(c2sc3nc(C)nn3c2O)N2CCN(c3ccccc3)CC2)cc(OC)c1OC (stereo unspecified)	1	5	-0.1	-2.3	.	3	2	-0.6	-3	13
O=C1Nc2ccccc2N(O)N1c1cc(-c2ccccc2)[nH]n1	-7	9	0.0	2.7	-7	12	-14	-1.5	-8	-5
COC(=O)c1ccc2c(=O)n(CC3CCCO3)c(=S)[nH]c2c1 (stereo unspecified)	3	.	0.1	.	3	.	1	5.3	7	-10
COc1ccccc1CNC(=O)c1ccccc1OC	-5	-14	-0.3	-8.1	-6	-9	-1	7.9	-1	-5
CC(=O)Nc1c2c(nn1-c1ccc(C)cc1C)CSC2	-3	9	0.2	0.2	-4	8	6	9.5	1	4
Cc1cccc([C@@H]2[C@@H]3C(=O)N(Cc4ccccc4)C(=O)[C@@H]3[C@]3(Cc4ccccc4)C(=O)N(c4cccc(Cl)c4)C(=O)N23)c1	-4	7	-2.1	-7.0	1	12	12	1.0	2	-1
Nc1nc(C(F)(F)F)cc(=O)n1N	-4	4	0.1	2.0	-6	1	5	-0.7	-3	-10
Cc1ccc(C(=O)NNC(=O)CCC(=O)Nc2cccc(Cl)c2C)cc1	-17	.	0.8	.	.	.	2	-2.4	9	-15
CN(Cc1ccccc1)c1ccc2nnc(-c3ccccc3)n2n1	-5	-52	-0.1	0.3	-2	-29	-5	-4.4	3	30
O=C(c1ccco1)N(CCC(c1ccccc1)c1ccco1)Cc1ccco1 (stereo unspecified)	2	.	-0.5	.	10	.	-1	-6.1	-10	-4
COCc1ccc(C(=O)N2CCCC(CCC(=O)NCc3ccccc3F)C2)o1 (stereo unspecified)	0	1	0.5	0.9	-1	18	3	0.1	-6	4
CCCCCC(=O)NNC1CC(=O)N(c2ccccc2)C1=O (stereo unspecified)	-3	21	0.3	2.0	21	16	-2	-1.6	8	5
O=C(c1ccc(NS(=O)(=O)/C=C/c2ccccc2)cc1)N1CCCCC1	14	-9	0.4	-1.2	-4	5	-11	-2.4	6	-13

Next section:
molecule	Beta apoptosis	rRNA inh HTS OD600	Bfl-1 A1 inh	rRNA inh HTS RFP	ALR H2O2 inh	rRNA inh HTS	Calb FLC	LANA-H2A inh	Beta2AR agonist	T cruzi inh
Cn1nnc(C(O)CNCc2ccc(Cl)cc2)n1 (stereo unspecified)	-1	15	1.2	2.2	7	20	-14	1.1	-2	-7
O=C(CSc1nnc(CCCN2C(=O)c3cccc4cccc(c34)C2=O)n1-c1ccccc1)N1CCCCC1	13	.	0.2	.	-2	.	17	0.6	-20	5
CCCC(=O)Nc1ccc2c(c1)nc(CN1CCCC1)n2C	-5	.	-0.4	.	-9	.	-1	-2.2	-6	-9
O=C(Nc1ccc2c(c1)OCO2)c1cccc(S(=O)(=O)N2CCCC2)c1	1	6.9*	-1.1	3.7*	-7	-14*	40	1.8	7	-10
Cc1csc2nc(CNS(=O)(=O)N(C)C)cn12	-11	11	1.2	-9.3	.	3	-5	-0.9	-28	-7
Cc1cc(NC(=O)CSc2nnc(-c3c[nH]c4ccccc34)n2-c2ccc(Cl)cc2)no1	12	16	-1.2	-4.8	-3	13	-7	-1.8	-15	6
O=C(Nc1ccc(Cl)cc1)N1CCCC(Cn2cccc2)C1 (stereo unspecified)	-3	-40	0.2	0.6	10	-24	5	-0.4	0	5
CC(=O)NS(=O)(=O)c1ccc(NC(=O)c2cc3c(=O)n4ccccc4nc3s2)cc1	2	0	-0.4	-1.2	-5	-2	-11	4.1	-6	-10
CN(CC(=O)Nc1c(Cl)cccc1Cl)C(=O)CNC(=O)c1ccco1	-4	4	-0.2	-4.4	0	3	.	1.9	0	.
COc1cc(NC(=O)CSc2nccc(C)n2)c(C)cc1[N+](=O)[O-]	.	-3	0.7	13	-9	5	-1	-1.6	-7	-1
Cc1cc(C)c(S(=O)(=O)Cc2ccccc2)c(Cl)n1	-3	12	-0.3	0.6	-8	9	5	-7.2	-8	0
CCOc1ccc(N(CC(=O)NCc2ccccc2C)S(C)(=O)=O)cc1	1	10	0.2	-3.2	-2	4	7	-1.2	5	2
O=c1[nH][nH]cc1C=NCc1cccc(C(F)(F)F)c1	1	12	0.8	1.2	-20	15	14	-2.7	-2	-12
O=C(COc1ccc(N2C(=O)c3ccccc3C2=O)cc1)c1ccccc1	-3	20	0.1	2.9	1	16	-11	-3.1	6	-1
Clc1ccc(-c2csc(Nc3ccccc3)[n+]2Cc2ccco2)c(Cl)c1	.	-39	.	53	.	-12	-16	.	13	45
O=C1NCC(COCc2ccco2)O1 (stereo unspecified)	-3	-2	-0.1	-4.0	-2	11	-9	1.7	3	1
CCc1ccc(NC(=O)c2noc3c2CCC3)cc1	0	.	-5.3	.	-13	.	17	-0.1	0	5
O=C(Nc1ccc2c(c1)nc1n2CCOC1)c1ccccc1	4	.	-1.2	.	.	.	-3	2.0	-16	-3
CCC1CCCCN1C(=O)COC(=O)c1n[nH]c2ccccc12 (stereo unspecified)	0	.	-0.4	.	-6	.	.	-1.2	-9	.
O=C(CC1SC(=NC2CCCCC2)NC1=O)Nc1ccccc1 (stereo unspecified)	-11	5	1.9	3.4	-67	-1	-1	2.0	-7	11

Following part
molecule	Beta apoptosis	rRNA inh HTS OD600	Bfl-1 A1 inh	rRNA inh HTS RFP	ALR H2O2 inh	rRNA inh HTS	Calb FLC	LANA-H2A inh	Beta2AR agonist	T cruzi inh
Cc1occc1C(=O)N1CCCC(Nc2ccc(F)cc2)C1 (stereo unspecified)	-4	13	0.3	0.7	98*	19	0	-1.2	-9	4
CCOC(=O)CSc1nnc(-c2c[nH]c3ccccc23)o1	1	-6	-0.7	0.1	-12	-4	2	0.0	39	6
Cc1cccc(-n2c(C)cc(/C=C3/C(=N)N4C(c5ccccc5)=CSC4=NC3=O)c2C)c1	-9	.	-0.6	.	-3	.	-12	-3.1	5	7
Cc1nc(C)c(-c2ccc(SCc3ccccc3C)nn2)s1	3	-61	-0.2	-1.7	-15	-36	-3	-0.4	-5	-1
Cc1cccc(NC(=O)Cc2noc3ccccc23)c1	-2	.	-0.2	.	-29	.	-29	2.8	-1	12
